Cruzain noTriton: cruzain (T. cruzi) inhibition without detergent. purified cruzain, Z-FR-AMC fluorescence, no detergent. P25779. 200,000 tested, 2.3% active. Potency, µM, inactives show max response, negative = inhibition, usual class: inhibitors; active = well fitted curve in the direction sought with a large enough effect; inconclusive = small, poorly fitted or top-dose-only effect, or another doubt; inactive = no such curve, though single readings can be large; an effect the other way counts as inactive or inconclusive;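 also: plate controls were enzyme without inhibitor for no effect and buffer without enzyme for full effect; nearly all actives have a fitted effect of over 40% in size; top concentration of the series not given in the record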
Target sequence (P25779 123-467 limits assumed): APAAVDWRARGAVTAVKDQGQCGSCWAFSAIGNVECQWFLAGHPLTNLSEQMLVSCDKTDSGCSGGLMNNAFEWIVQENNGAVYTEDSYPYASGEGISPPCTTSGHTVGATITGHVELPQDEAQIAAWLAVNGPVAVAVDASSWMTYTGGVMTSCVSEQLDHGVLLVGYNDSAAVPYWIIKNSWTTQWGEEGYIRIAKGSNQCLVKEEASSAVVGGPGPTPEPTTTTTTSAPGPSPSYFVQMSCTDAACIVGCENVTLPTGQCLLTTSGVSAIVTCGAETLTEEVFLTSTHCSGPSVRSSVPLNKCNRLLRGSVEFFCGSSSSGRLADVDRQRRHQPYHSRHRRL
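Detergent-free condition (0.00005% Triton X-100) in acetate buffer pH 5.5 with DTT. 1.5 nM enzyme and compound were pre-mixed 15 min, then 2 uM Z-FR-AMC substrate added; reaction progress from fluorescence change between first and third reads (60 s).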
Cruzain Triton: inhibitors of Trypanosoma cruzi cruzain with detergent | purified cruzain, Z-FR-AMC fluorescence, 0.01% Triton | AID 1478 | 200,000 tested, 0.43% active | P25779 | Potency, µM, for inactives: max response, negative = inhibition, actives largely listed as inhibitors; active = well fitted curve in the direction sought with a large enough effect; inconclusive = small, poorly fitted or top-dose-only effect, or another doubt; inactive = no such curve, though single readings can be large; an effect the other way counts as inactive or inconclusive;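 also: plate controls were neutral wells for no effect and buffer without enzyme for full effect; nearly all actives have a fitted effect of over 40% in size; top concentration of the series not given in the record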
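Detergent-containing arm of a paired screen for aggregation-based inhibition: 0.01% Triton X-100 present. Cruzain at 1.5 nM cleaved 2 uM Z-FR-AMC at pH 5.5 with 5 mM DTT; AMC fluorescence gain over 60 s measured activity.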
RE007 growth inh: less growth of the S. pombe RE007 Vpr strain; S. pombe RE007 Vpr strain, BacTiter-Glo ATP luminescence, 24 h; control for the full effect not named in the record; Potency, µM (titrated, usually from 92.2 µM), for the others: top-dose activity change, negative = less growth; 360,000 tested, 0.21% active; active = well fitted falling curve with a large enough effect; inconclusive = small, poorly fitted or top-dose-only effect; inactive = no such curve, though single readings can be large or run the other way;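 also: % is scaled to controls: 0 for no effect and ±100 for the full control effect; nearly all actives have a fitted effect of over 50% in size; the assay follows cell death caused by Vpr and the record does not say whether a fall means rescue or toxicity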
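Fission yeast strain RE007, carrying one chromosomally integrated HIV-1 vpr copy, was seeded at OD 0.01 in PMG+AL medium with 23 nL pinned compound. After 24 h at 30 °C and 99% humidity, viability was read by BacTiter-Glo luminescence.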
SARS PLP yeast: blocks SARS-CoV papain-like protease in a yeast assay; S. cerevisiae expressing SARS-CoV PLpro, growth rescue; control for the full effect not named in the record; Potency, µM (top dose mostly 32.9 µM), without a hit: top-dose activity, positive = growth rescue; 330,000 tested, 0.19% active; AID 485353; also: 0% is about no effect; nearly all actives have a fitted effect of over 55% in size; growth read by luminescence after 48 h
Lassa entry inh: Lassa virus entry inhibition | Lassa virus pseudotype entry inhibition, cell reporter; control for the full effect not named in the record | Potency, µM (highest dose often 37.9 µM), inactives show top-dose activity change, negative = inhibition, usual class: inhibitors | 300,000 tested, 1.2% active; active means well fitted inhibition curve with a large enough effect; inconclusive means small, poorly fitted or top-dose-only effect, or effect the other way; inactive means flat fitted curve, though single readings scatter; tested in HEK293 cells; also: % is scaled to controls: 0 for no effect and ±100 for the full control effect; nearly all actives have a fitted effect of over 50% in size; luciferase read-out
NS1 inh: blocks influenza NS1 protein function; S. cerevisiae slowed by influenza A NS1, growth recovery by OD600; Potency, µM (doses to about 46.1 µM), for inactives: top-dose activity, positive = more growth; 270,000 tested, 0.4% active; also: actives are rising curves; nearly all actives have a fitted effect of over 50% in size
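OD600 was taken as the measure of yeast growth restored by compound in an NS1-expressing S. cerevisiae strain. Cells had been washed out of glucose medium and diluted 1:100 into galactose -URA medium, pH 6.0.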
StopGo reporter: lowers the luciferase signal of an FMDV 2A StopGo reporter. AID 1159524. 410,000 tested, 1.2% active. Potency, µM (series often up to 57.9 µM), without a hit: at the top dose signal change, negative = less light. human cells with a luciferase reporter of 2A StopGo recoding; control for the full effect not named in the record; active = well fitted falling curve with a large enough effect; inconclusive = small, poorly fitted or top-dose-only effect; inactive = no such curve, though single readings can be large or run the other way; tested in HEK293T cells; also: % is scaled to controls: 0 for no effect and ±100 for the full control effect; nearly all actives have a fitted effect of over 45% in size; luciferase light after 4 h
MARV entry inh: Marburg virus entry inhibition; 300,000 tested, 1.8% active; AID 540276; Potency, µM (highest dose often 37.8 µM), without a hit: top-dose activity change, negative = inhibition, actives largely listed as inhibitors; Marburg virus pseudotyped entry inhibition, cell reporter; control for the full effect not named in the record; about a third of the inactives were read at about 46 µM; active = well fitted inhibition curve with a large enough effect; inconclusive = small, poorly fitted or top-dose-only effect, or effect the other way; inactive = flat fitted curve, though single readings scatter; tested in HEK293 cells; about a fifth of its hits are not listed in these tables; also: % is scaled to controls: 0 for no effect and ±100 for the full control effect; luciferase read-out
* = called active by the depositor; ? = inconclusive; . = not tested or not shown; [ ] = another dose, or the depositor's remark. Unless noted, calls follow the shape of the dose curve; as a rule, active means well fitted rising curve with a large enough effect; inconclusive means small, poorly fitted or top-dose-only effect; inactive means no such curve, though single readings can be large or run the other way. Potency is read from the fitted curve at half-maximal effect. Not a hit list, and some 4.6% of all compounds hit somewhere here.

entry	SMILES	Cruzain noTriton	Cruzain Triton	RE007 growth inh	SARS PLP yeast	Lassa entry inh	NS1 inh	StopGo reporter	MARV entry inh
1	Cc1ccsc1/C=N/NC(=O)c1nnn(-c2nonc2N)c1CN(C)c1ccccc1	.	.	4%	-2%	.	6%	-11%	.
2	Cc1cc(C)cc(NC(=O)CN2CCC(C(=O)c3ccccc3)CC2)c1	.	.	5%	2%	-8%	4%	-11%	-12%[46.1 µM]
3	O=C(COC(=O)/C=C/c1ccccc1[N+](=O)[O-])NCc1ccco1	.	.	-7%	-1%	5%[46.1 µM]	.	3%	9%[46.1 µM]
4	O=C(CSc1n[nH]c(-c2cccs2)n1)NCc1cccs1	-3%	4.7%	-5%	2%	-10%	5%	6%	2%
5	c1ccc(C2NCCc3ccccc32)cc1 (stereo not given)	.	.	-12%	-1%	.	-2%	-24%	?
6	CN(C)c1ccc(/C=C2\C(=O)NC(=O)N(CCc3ccc(F)cc3)C2=O)cc1	.	.	9%	0%	.	-31%	-3%	.
7	COc1ccc(N2CC(C(=O)OCC(=O)NCc3ccccc3)CC2=O)cc1 (stereo not given)	1%	4.1%	-13%	-6%	-22%	-5%	.	16%
8	Cn1nnnc1SCCNCc1cccnc1	-24%	-0.8%	2%	-2%	-5%	7%	-15%	?
9	O=C(c1ccc(-n2c(SCc3cccc(F)c3)nc3ccccc3c2=O)cc1)N1CCOCC1	?	-10%	2%	3.2µM*	18%	12%	?	-5%
10	O=C1Nc2cc(Cl)ccc2C1(N1CCNCC1)C(F)(F)F (stereo not given)	-6%	0.8%	1%	8%	-2%	-12%	-15%	-28%
11	COc1ccc(CC(=O)NNC(=O)c2ccc(NC(C)=O)cc2)cc1	.	.	-12%	0%	-2%	5%	-4%	?
12	O=C1CCC(C(=O)OCC(=O)N2N=C3/C(=C/c4ccccc4)CCCC3C2c2ccccc2)N1 (stereo not given)	?	-14%	12%	-7%	?	0%	?	?
13	Cc1cc(C)n2nc(SCc3cccc(S(=O)(=O)N(C)C)c3)nc2n1	.	.	-8%	4%	4%	-1%	?	-8%
14	O=C(Nc1ccc2ccccc2c1)N1C[C@H]2C[C@@H](C1)c1cccc(=O)n1C2	.	.	-13%	-1%	.	0%	-14%	.
15	O=C(NCCCN1CCOCC1)C(=O)N/N=C/c1ccc(F)cc1	.	.	8%	0%	.	5%	-9%	.
16	CC(C)N(C(=O)Cn1cc(S(=O)(=O)CC(=O)NCc2ccccc2)c2ccccc21)C(C)C	.	.	4%	-2%	-2%	-4%	-14%	-5%
17	COc1ccc(CC(=O)NCc2ccc3c(c2)CCN3C(=O)c2ccccc2)cc1OC	-5%	7.4%	.	.	-11%[46.1 µM]	.	-7%	.
18	C=CCc1cccc(/C=N/NC(=O)C(C)Nc2ccc(C)cc2)c1O (stereo not given)	6%	-10%	.	?	?	-4%	?	?
19	COc1ccc(N2CCN(C(=O)COC(=O)COc3cc(C)cc(C)c3)CC2)cc1	.	.	-16%	0%	?	.	-2%	?
20	Cc1cccc(NS(=O)(=O)c2ccc(C)c(C(=O)NCc3ccncc3)c2)c1	.	.	-9%	.	0%	.	28%	4%[46.1 µM]
21	CCCOC(=O)c1ccc(NC(=O)c2ccoc2C)cc1	-8%	-15%	-23%	-32%	-3%	3%	10%	9%
22	Cc1ccc(S(=O)(=O)N(CC(=O)N2CCOCC2)c2ccccc2F)cc1	.	.	-6%	-3%	?	12%	32%[activator]	24%[46.1 µM]
23	CCOc1cc(C)cc2oc(=O)cc(-c3ccccc3)c12	2%	-9.4%	4%	-4%	3%	-73%	.	?
24	CC1(C)N=C(c2cccs2)C(C)(C)N1O	2%	-1.2%	0%	-1%	-1%	9%	0%	0%
25	CCOc1ccc2[nH]c(=O)c(CN(CCO)C3(c4nnnn4C4CCCCC4)CCCCC3)cc2c1	?	-11%	-2%	-5%	5%	-49%	?	?
26	CCNc1nc(N)nc(-c2cc(Cl)ccc2OC)n1	4%	6.7%	0%	7%	13%	10%	-18%	1%
27	O=C(c1ccco1)N1CCN(C/C=C/c2ccccc2)CC1	5%	-2.4%	1%	?	19%	-1%	-20%	3%
28	O=C(CCC1CCCN(C(=O)c2ccoc2)C1)NCc1ccc(F)c(F)c1 (stereo not given)	.	.	-11%	-1%	5%[46.1 µM]	0%	8%	?
29	COc1cccc(-n2nnc3c(=O)n(Cc4cccc(C)c4)cnc32)c1	-9%	-0.5%	-2%	-21%	.	4%	-1%	.
30	COc1ccc(NC(=O)CSc2ccccc2)cc1S(=O)(=O)N1CCCCC1	3%	-4.0%	-11%	13%	?	-12%	-1%	-17%
31	Cc1ccc(-n2nc(C(=O)O)cc2-c2ccccc2Cl)cc1	.	.	5%	1%	20%[46.1 µM]	5%	-16%	7%[46.1 µM]
32	Cc1ccc(CNC(=O)/C=C/c2cccs2)cc1	-11%	-6.4%	?	-14%	5%	-4%	23%	22%
33	Nn1c(SCc2nc3ccccc3[nH]2)nnc1-c1ccccc1	-17%	-4.7%	-9%[3.69 µM]	3%	-8%	1%	7%	-5%
34	O=C(NCc1ccc2c(c1)OCO2)C1CCN(S(=O)(=O)N2CCCCC2)CC1	-1%	-3.2%	0%	10%	-2%	-14%	-7%	0%
35	COC(=O)C(NC(=O)CSc1nc(N)cc(=O)[nH]1)c1ccccc1 (stereo not given)	.	.	-8%	0%	2%[46.1 µM]	-8%	-10%	21%[46.1 µM]
36	CCCCOC(=O)Nc1cc(Cl)ccc1C	6%	-1.7%	-14%	0%	6%	5%	2%	3%[46.1 µM]
37	O=C(COC(=O)CCC(=O)c1cccs1)Nc1ccc(S(=O)(=O)N2CCOCC2)cc1	8%	0.7%	10%	2%	1%	-3%	-8%	-2%[46.1 µM]
38	Cc1cc(=O)oc2cc(OCC(=O)NC3CC(C)(C)NC(C)(C)C3)ccc12	.	.	-9%	-11%	18%[46.1 µM]	-12%	23%	-8%[46.1 µM]
39	Cc1ccc(O)c(N=Cc2cc(Cc3ccccc3)cc([N+](=O)[O-])c2O)c1	.	.	-21%	-5%	-8%	-48%	10%	?
40	COc1cccc2c(=O)c3c([nH]c12)OC(C)(C)C3	.	.	3%	.	19%[46.1 µM]	.	-6%	23%[46.1 µM]
41	CCOc1ccc(-c2cc(NC(=O)c3cccc(Cl)c3)c(C(=O)OC)s2)cc1	7%	-1.5%	.	.	26%[46.1 µM]	.	-16%	15%[46.1 µM]
42	Cc1ccc(NS(=O)(=O)c2c(C)noc2C)cc1	.	.	9%	-1%	1%[46.1 µM]	-1%	34%	-6%[46.1 µM]
43	O=C(c1ccc2c(Cl)c3c(nc2c1)CCCC3)N1CCN(c2ccc(F)cc2)CC1	9%	-5.4%	-5%	-80%	2%	-18%	0%	-5%
44	CC(C)c1cc(C(F)(F)F)n2nc(C(=O)Nc3ccc4c(c3)OCO4)cc2n1	-9%	-3.6%	24%	-8%	5%	-34%	22%	3%
45	Cc1ccc(S(=O)(=O)N2CCCOC2CNC(=O)C(=O)NCCC2=CCCCC2)cc1 (stereo not given)	6%	-6.8%	8%	7%	-20%	-7%	?	?
46	COc1ccc(CCNc2cc(=O)[nH]c(N)n2)cc1	-4%	0.3%	12%	5%	1%	?	-8%	5%
47	CN(C)c1cccc2c1C(=O)c1ccccc1C2=O	-5%	-4.3%	?	-24%	?	-11%	-19%	1%
48	CCC(C)(C)n1nnnc1C(c1cccnc1)N1CCC(Cc2ccccc2)CC1 (stereo not given)	.	.	1%	1%	?	-3%	-17%	?
49	CSc1ccc(CN(C)CCc2ccccn2)cc1	.	.	-5%	0%	.	4%	-10%	.
50	C=CCNC(=O)c1ccccc1NC(=O)Nc1ccccc1	13%	-0.1%	5%	-11%	10%	5%[9.22 µM]	.	11%
51	Cc1nc(Cl)sc1C(=O)NC(C)c1ccc(Cl)cc1 (stereo not given)	6%	-1.6%	2%	11%	3%	2%	?	-20%
52	COc1ccc(Br)cc1-c1noc(-c2ccccc2)n1	7%	4.4%	-11%	?	3%	1%	19%	6%
53	CCOC(=O)c1ccc2c(c1)[n+](CC)c(C)n2-c1ccccc1	.	.	-8%	0%	4%	2%	-10%	13%[46.1 µM]
54	CN1CCN(c2ccc([N+](=O)[O-])cc2C(=O)N2CCCCC2)CC1	-7%	-6.0%	2%	-1%	-4%	21%	12%	?
55	CCN(CC)C(=O)c1ccc(C)c(Br)c1	1%	-0.9%	-14%	3%	6%	6%	-13%	-29%
56	O=C(Nc1ccc2oc(=O)ccc2c1)c1ccc(-c2ccccc2[N+](=O)[O-])o1	.	.	6%	-1%	-11%	0%	-27%	?

Continuation.
entry	SMILES	Cruzain noTriton	Cruzain Triton	RE007 growth inh	SARS PLP yeast	Lassa entry inh	NS1 inh	StopGo reporter	MARV entry inh
57	CCCCC1CCC(C(=O)N2CC(=O)Nc3ccc(F)cc3C2c2ccc(F)cc2)CC1 (stereo not given)	-8%	-9.1%	.	.	?	.	-22%	-22%[46.1 µM]
58	CC(=O)N1CN2CN(C(C)=O)CC(C(=O)c3ccc([N+](=O)[O-])cc3)(C2)C1	.	.	9%	0%	22%	-3%	-4%	3%
59	CC(CN1CCC(n2nccc2NC(=O)CCCc2ccccc2)CC1)c1ccccc1 (stereo not given)	.	.	-4%	1%	.	-4%	-18%	.
60	CC1CN(S(=O)(=O)c2cccc(C(=O)OC(C)C(=O)NC3CCCCC3C)c2)CC(C)O1 (stereo not given)	.	.	-11%	-2%	10%	6%	4%	1%
61	COc1ccccc1NC(=O)NNC(=O)c1ccc2ccccc2c1	.	.	3%	-4%	7%[46.1 µM]	6%	12%	-13%[46.1 µM]
62	CCCCN(C(=O)COC(=O)c1ccc(C)s1)c1c(N)n(CCC)c(=O)[nH]c1=O	.	.	7%	1%	16%[46.1 µM]	.	-5%	-4%
63	Clc1ccc(-c2ccnc(-n3cccc3)n2)s1	.	.	-21%	-1%	4%[46.1 µM]	6%	-7%	?
64	CCCCc1ccc(NC(=O)c2ccc(NS(C)(=O)=O)cc2)cc1	.	.	-2%	0%	?	2%	0%	6%

Compound activity: PubChem BioAssay, National Center for Advancing Translational Sciences (NCATS)
